E coli growth – E. coli growth inhibition, primary screen, OD600. Escherichia coli growth, 23 h; active compounds read low. OD600 absorbance (concentration not given with the values). 330,000 compounds, 0.21% hits;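 active means OD600 absorbance below the run mean of sample wells minus 3.6 SD, in any replicate, cut at about 0.56 in these data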;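 further: stock transfer was 300 nL into about 60 µL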
Vif A3G – inhibitors of Vif binding to APOBEC3G peptide, primary screen, biochemical, TR-FRET, GST-Vif 1-94, biotin-A3G peptide, dose response retest (AID 1117319). Virion infectivity factor (Human immunodeficiency virus type 1 group M subtype B (isolate …. TR-FRET GST-Vif / biotin-A3G peptide binding; higher % means a stronger effect; test concentration not given here; strong numbers were not always called active. inhibition, %; hits with a dose series show IC50 in µM. 260,000 compounds, 0.57% hits;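 active means above the screen mean plus three standard deviations and confirmed in dose response; inconclusive means results disagree or hit not tested in dose response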;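 further: Vif residues 1-94 fused to GST binding biotinylated APOBEC3G peptide 110-148; 0% = full assay without inhibitor and 100% = GST in place of GST-Vif; retest series ran down from 100 µM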
Bfl-1 A1 inh – caspase 3/7 activation in MEF A1-2A-BIM cells, primary screen, A1 inhibitor project, cell-based, luminescence, HTS | Caspase-Glo 3/7 luminescence, 3 h; percent of clofoctol response, vehicle zero | caspase activation, % (no concentration beside the values) | 330,000 compounds, 0.066% hits;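 active means over half of replicate activation scores above 10%, or exactly half above 10 with the replicate mean above 10; inconclusive means replicate mean below 10 yet half the replicates above 10; inactive means over half of replicates below 10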;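 further: wells of about 30 µL received 50 nL stock; many hits fall short of the cut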
LANA-H2A inh – blockers of LANA interaction with H2A/H2B – biochemical, FP readout, HTS, primary screen; Protein LANA1 (Human herpesvirus 8 type P (isolate GK18)), Q9QR71; cell-free LANA-H2A/H2B peptide, fluorescence polarization; inhibition, % (no concentration beside the values); 320,000 compounds, 0.6% hits; in the data active means inhibition mostly above about 10%, no sharp cut-off; inactive means mostly below about 6.7%;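 further: stock transfer was 7.5 nL into about 10 µL; 0% = median of vehicle wells and 100% = median of positive control wells; one replicate is shown; the record names a cut of 25% in any replicate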
UCH37 DUB inh – inhibitors of human UCH37 deubiquitinase, primary screen, biochemical, Ub-AMC cleavage, fluorescence. Ubiquitin carboxyl-terminal hydrolase isozyme L5 (Homo sapiens), Q9Y5K5. purified proteasome/UCH37. inhibition, % (test concentration not listed). 330,000 compounds, 0.33% hits. AID 588478, 2011;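 active means mean of two replicates above 20%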;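 further: 0% = compound-free wells with enzyme and 100% = wells lacking proteasome; stock transfer was 100 nL into about 20 µL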
Target sequence (Q9Y5K5 whole entry, looked up): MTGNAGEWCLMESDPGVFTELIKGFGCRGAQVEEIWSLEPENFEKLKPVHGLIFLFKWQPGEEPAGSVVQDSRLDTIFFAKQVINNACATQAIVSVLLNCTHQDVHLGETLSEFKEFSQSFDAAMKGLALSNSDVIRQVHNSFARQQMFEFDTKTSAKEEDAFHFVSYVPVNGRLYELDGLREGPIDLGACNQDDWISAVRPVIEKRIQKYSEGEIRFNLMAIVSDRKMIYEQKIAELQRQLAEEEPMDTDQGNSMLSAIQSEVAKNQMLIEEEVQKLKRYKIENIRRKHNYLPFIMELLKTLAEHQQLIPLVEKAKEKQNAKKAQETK
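Material: Human UCH37 enzyme supplied as purified proteasome complex | Schedule: 30 min preincubation with enzyme, 25 min cleavage at room temperature | Detection: AMC fluorescence 355/460 nm | Measure: % inhibition of Ub-AMC cleavage fluorescence | Controls: Wells without proteasome as full block, compound-free enzyme plus substrate as uninhibited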
Beta2AR agonist – beta2AR agonists driving receptor internalization, primary screen, cell-based, FAP fluorogen, flow cytometry; 340,000 compounds, 0.43% hits; Am2.2-beta2AR cells; reference of the scale not given here; AID 504454, 2011; response, % (no concentration beside the values);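 active means response above a set limit, near 3 SD of response in nonfluorescent compounds, cut at about 42% in these data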;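 further: stock transfer was 100 nL into about 11 µL; a reference agonist was the positive control; negative values mostly stem from fluorescent compounds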
Target sequence (P07550 whole entry, looked up): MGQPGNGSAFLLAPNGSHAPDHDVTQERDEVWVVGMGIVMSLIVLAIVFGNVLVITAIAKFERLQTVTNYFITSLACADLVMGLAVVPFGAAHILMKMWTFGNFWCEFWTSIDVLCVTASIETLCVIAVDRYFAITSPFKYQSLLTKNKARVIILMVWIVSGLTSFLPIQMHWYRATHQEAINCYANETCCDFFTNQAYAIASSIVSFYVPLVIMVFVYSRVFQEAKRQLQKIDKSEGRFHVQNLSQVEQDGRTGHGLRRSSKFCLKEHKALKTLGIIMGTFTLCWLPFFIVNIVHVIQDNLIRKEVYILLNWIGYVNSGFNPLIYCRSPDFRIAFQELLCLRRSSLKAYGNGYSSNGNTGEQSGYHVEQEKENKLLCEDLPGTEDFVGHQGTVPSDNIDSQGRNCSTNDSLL
HNF4A DNA FP – change in binding of human HNF4A to DNA, primary screen, biochemical, fluorescence polarization, FITC-DNA; activity change, % at 10 µM; 360,000 compounds, 0.3% hits; 1 h; Hepatocyte nuclear factor 4-alpha (Homo sapiens), P41235; in the data active means activity change above about 30%, passing the limit was not always enough;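 further: controls were the assay level and a saturating level of protein; the project sought stronger binding though the title names inhibitors; some compounds called inactive have numbers as strong as hits; positive values seem to mean higher polarization but the record does not say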
Active calls of the source: *; ? = inconclusive; · = no result given; & = joins results of further samples.

Structure	E coli growth	Vif A3G	Bfl-1 A1 inh	LANA-H2A inh	UCH37 DUB inh	Beta2AR agonist	HNF4A DNA FP
O=C(CSc1nc2nc(-c3cccs3)cc(C(F)(F)F)c2c(=O)[nH]1)Nc1c(F)c(F)c(F)c(F)c1F	0.69	?	-0.5	-4.0	-0.6	7	-4.6
CCOC(=O)C1(CC2CCCCO2)CCN(Cc2ccccc2-c2ccco2)CC1 (stereo unspecified)	0.66	8%	-0.2	6.8	0.8	40	5.5
Nc1ccc(C#Cc2ccc3sc4ccccc4c(=O)c3c2)cc1	0.66	·	-2.4	-2.9	17	5	-2.3
O=C(Cn1nnc(-c2ccccc2)n1)NCc1ccc2c(c1)OCO2	0.75	-9%	0.3	-0.7	-4.8	-7	1.3
O=C(O)CC(NC(=O)C12CC3CC(CC(C3)C1)C2)c1cccc([N+](=O)[O-])c1 (stereo unspecified)	0.73	·	0.5	3.2	0.1	-3	-0.8
O=C(CCNC(=O)c1ccco1)NC(Cc1c[nH]c2ccccc12)C(=O)O (stereo unspecified)	0.68	-4%	-0.2	-1.3	1.6	-8	-3.6
Fc1cccc(/C=N/Nc2ccccn2)c1	·	-4%	-6.5	5.0	·	-5	0.4
COc1cccc(CNC(=O)C2CCN(c3cnccn3)CC2)c1	0.66	?	0.4	1.5	-11	2	4.1
COC(=O)NC(NC(=S)Nc1cccc(C)c1)C(Cl)(Cl)Cl (stereo unspecified)	0.66	·	-0.1	-3.6	3.6	-1	1.4
COC(=O)c1ccccc1NC(=O)CN(c1c(C)cccc1C)S(C)(=O)=O	0.69	·	0.5	-0.1	4.0	2	0.0
CCN(C1CCS(=O)(=O)C1)S(=O)(=O)c1cc(C)ccc1C (stereo unspecified)	0.63	9%	0.3	1.9	-0.3	-2	-3.2
CCN(C(=O)COC(=O)c1ccco1)c1c(N)n(Cc2ccccc2)c(=O)[nH]c1=O	0.69	-9%	0.1	1.1	0.3	-2	-3.1
O=C(COC(=O)c1ccc([N+](=O)[O-])cc1)NCCC1=CCCCC1	0.69	·	-0.5	-6.1	1.6	-3	1.0
O=C(CSc1nnc(-c2ccccn2)n1Cc1ccccc1)Nc1ccc2c(c1)OCO2	0.75	-3%	0.6	-2.4	5.2	-10	-3.7
COc1ccc(Cl)cc1NC(=O)CN(C)C(=O)Cc1n[nH]c(=O)c2ccccc12	·	·	0.0	-3.7	·	-6	2.2
CCOc1ccccc1OCCOc1ccc(F)cc1	0.72	2%	-0.5	26*	0.0	0	2.1
COc1ccc(NS(=O)(=O)c2cc(NC(=O)c3ccc(Cl)cc3)ccc2N2CCOCC2)cc1	0.69	-6%	3.6	-2.0	-1.5	0	6.0
O=C(NNS(=O)(=O)c1ccccc1)C1CC(c2cccnc2)=NO1 (stereo unspecified)	0.69	1%	-0.5	0.8	-0.1	6	-0.2
CC(C)(C)c1csc(Sc2ncccc2[N+](=O)[O-])n1	0.65	·	0.0	3.3	-0.7	-17	2.4
COc1ccc(NC(=O)NNC(=O)COc2ccc3cc(Br)ccc3c2)cc1	0.69	·	0.6	-2.4	1.0	-2	4.5
Brc1ccccc1Cn1c(-c2cncs2)nc2ccccc21	0.72	67%	1.2	-0.6	2.7	10	-0.7
COc1ccc(OC)c(NC(=O)c2[nH]c(C)c(C(C)=O)c2C)c1	0.67	>100µM*	-1.0	-3.6	-6.2	-8	1.2
CC(=O)Nc1ccc(S(=O)(=O)Nc2cccc(C(=O)NC(C)(C)C)c2)cc1	0.81	4%	-0.9	-6.7	-1.6	14	-2.0
CCNC(=O)Cn1cnc2c1c(=O)n(C)c(=O)n2C	0.72	-2%	0.1	0.0	-0.2	-4	3.2
CCc1[nH]nc2c1C1(CCN(C(=O)c3ccccc3)CC1)C(C#N)=C(N)O2	0.7	3%	-0.7	0.7	5.9	0	6.6
COc1ccc(S(=O)Cc2ccc(C(=O)N3CCN(C(=O)c4ccco4)CC3)o2)cc1 (stereo unspecified)	0.7	-9%	0.4	0.3	1.4	-11	0.8
COC(=O)C1=NN(N=O)C2(CC(=O)N(c3cc(C)cc(C)c3)C2=O)C1 (stereo unspecified)	0.67	14%	-0.3	2.1	3.4	4	-0.4
Cc1ccc(CN(Cc2ccco2)C(=S)NCC(=O)O)cc1	0.7	?	-0.5	-6.1	6.9	1	5.5
CN=C(C)C1=C(O)C(C(=O)OC)C(C)(C)CC1=O (stereo unspecified)	0.7	-2%	0.5	4.0	0.7	2	4.6
O=C(NCCCN1CCOCC1)c1ccc(CNS(=O)(=O)c2ccc(F)cc2)cc1	0.68	2%	0.6	-2.0	0.5	4	-2.1
Cc1ccccc1N1CCN(S(=O)(=O)c2ccccc2)CC1	0.72	-4%	0.1	-1.7	2.4	6	14
CCCCNC(=S)Nc1ccc2[nH]c(=O)[nH]c2c1	0.7	11%	0.2	3.5	-0.4	0	0.9
COc1ccc(NC(=O)CCNS(=O)(=O)c2cccc3nsnc23)cc1	0.67	4%	0.5	2.4	2.3	-8	0.1
COc1ccc(C2C(C(=O)c3ccccc3)=C(C)Nc3nc4ccccc4n32)cc1OC (stereo unspecified)	0.76	-8%	0.9	13	4.8	-2	1.7
CC(=O)N(C)c1ccc(N=Nc2c(C)[nH]n(C(N)=S)c2=O)cc1	0.7	·	-8.1	3.1	16	0	3.5
O=S(=O)(NC1CCCCC1)c1ccc(F)c2ccccc12	0.7	8%	0.1	-1.0	2.1	3	1.0
CN(Cc1nc2c(s1)CCCC2)C(=O)CCc1nnc(-c2ccc3c(c2)OCO3)o1	0.7	2%	-0.4	-0.7	1.5	9	-2.2
CC(=O)Oc1ccc(C#C/C=C2\c3ccccc3C(=O)N2c2ccccc2)cc1	·	·	-0.2	12	4.5	-9	27
COc1ccccc1NC(=O)N1c2ccccc2NC(=O)CC1C (stereo unspecified)	0.65	·	2.1	6.0	1.2	2	5.8
Cc1cc(C)c2nc(N3CCCC(C(=O)N4CCC(C(N)=O)CC4)C3)sc2c1 (stereo unspecified)	0.71	28%	0.6	3.6	5.0	-7	-3.7
CCOc1cc2[nH]c(=S)n(CCCN(CC)CC)c(=O)c2cc1OCC	0.73	-4%	0.1	1.4	3.3	7	4.0
COc1ccc(/C(N)=N/OC(=O)CCc2ccccc2)cc1	0.61	24%	-1.6	-2.1	-0.5	-6	-0.8
Cn1c(NC(=O)c2ccccc2)c(-c2cccs2)c(=O)c2ccccc21	0.74	-10%	-0.6	0.5	4.7	5	4.6
CSCCC(NS(=O)(=O)c1cccs1)C(=O)NCc1cccs1 (stereo unspecified)	0.72	-2%&-4%	0.0	-3.8	-0.8	4	1.4
O=C(Nc1nc(-c2ccc(Cl)cc2Cl)cs1)C1CCCO1 (stereo unspecified)	·	-1%	0.0	5.6	·	5	-2.3
Cc1ccccc1CN1CCN(Cc2ccccc2C(F)(F)F)CC1	0.64	0%	1.7	0.3	2.2	5	2.1
O=C(c1ccc2c3c(cccc13)C(=O)N(O)C2=O)N1CCCCC1	0.73	3%	-0.3	-11	-0.2	8	-0.4
COc1ccccc1CN(C)C(=O)COC(=O)c1ccc(Cl)nc1	0.68	27%	0.7	-2.7	7.6	-9	-1.7
CCCC1CCC(C2=N/C(=C\c3ccc(OC)c(OC)c3)C(=O)O2)CC1 (stereo unspecified)	0.7	-1%	0.6	0.4	-44	2	2.0
COC(=O)c1ccc2[nH]c([C@H](C)O)c([C@H](C)O)c2c1	·	·	0.8	-7.9	0.7	3	12

Additional structures follow:
Structure	E coli growth	Vif A3G	Bfl-1 A1 inh	LANA-H2A inh	UCH37 DUB inh	Beta2AR agonist	HNF4A DNA FP
Cc1nnc(C)n1/N=C/c1cc2ccccc2nc1Cl	·	2%	-1.0	-3.5	·	-4	-4.3
COc1ccc(NS(=O)(=O)c2ccc(-c3coc(C)n3)cc2)cc1	0.62	·	-0.6	-3.7	1.5	2	0.5
O=C(CC(O)(c1ccccc1)c1ccccc1)Nc1ccccn1	·	-6%	·	·	·	-3	-2.1
Cc1ccc(C(=O)Nc2cccc(-c3nc4ncccc4o3)c2)cc1	0.64	-23%	1.1	-3.5	0.2	-3	1.3
CCC/C(=C1/C(=O)CC(C)(C)C(C(=O)OC)C1=O)N1CCCC1 (stereo unspecified)	0.76	2%	-0.2	-3.4	-4.2	-2	4.7
O=C(N1CCOCC1)N1CCN(c2ccccn2)CC1	0.75	3%	0.6	-2.8	-0.8	1	-0.1
Fc1ccc(CNCC2CCCO2)cc1 (stereo unspecified)	0.63	·	·	·	2.4	-9	-1.2
CSc1ncc(Sc2ccccc2)c(C(=O)O)n1	0.67	·	-0.5	-1.0	7.5	2	0.8
COc1ccc(-c2nc3cc(NC(=O)Cc4ccc(OC)c(OC)c4)ccc3o2)cc1	0.65	-3%	-0.6	-6.8	-49	10	5.6
Cc1cccc(C)c1OCc1cc(C(=O)N2CCC(c3ccncc3)CC2)no1	0.65	-5%	1.1	-4.6	3.8	-5	3.0
NC(N)=NS(=O)(=O)c1ccc(NC(=S)NC(=O)c2ccncc2)cc1	0.7	-3%	-0.2	0.6	2.9	5	0.2
CCCCOP(=O)(c1ccc(N(C)C)cc1)C(O)c1ccc(OC)cc1 (stereo unspecified)	0.65	-10%	-0.4	4.1	-0.5	0	1.1
CCN(CC(=O)Nc1ccccc1Br)C1CCCCC1	0.64	-3%	0.0	-0.7	3.5	1	-0.4
O=C(NCC(c1cccnc1)N1CCN(c2ccc(F)cc2)CC1)c1ccccc1 (stereo unspecified)	0.72	6%	-0.1	5.8	-1.6	2	1.6
CCOc1ccc(N2C(=O)CC(Sc3nc(C)cc(C)c3C#N)C2=O)cc1 (stereo unspecified)	0.66	13%	0.5	-2.0	0.7	23	-3.8
CCOc1ccccc1CNC(=O)CCCn1ncn2c(cc3occc32)c1=O	0.69	·	-1.8	3.0	-0.1	-20	-1.8
COCCNC(=O)/C(C#N)=c1\s/c(=C\c2ccccc2OC(F)F)c(=O)n1Cc1ccccc1	·	-12%	-0.9	-3.3	·	·	·
Fc1ccccc1CSc1nnc(-c2cccs2)o1	0.67	6%	-1.4	5.3	0.5	1	-1.4
COc1ccc(Cl)cc1C(=O)NCCCSc1ccccc1	0.64	4%	-0.9	1.1	-1.2	-12	1.6
CCc1ccc2oc(-c3ccc(OC)cc3)cc(=Nc3cccc(C(=O)O)c3)c2c1	0.69	4%	-6.4	3.9	-4.7	12	0.1
Cc1n[nH]c(C)c1S(=O)(=O)N(CC(=O)N1CCc2ccccc21)c1ccc(C(C)C)cc1	0.75	?	0.0	4.0	7.4	3	-3.1
CCn1ccc(C(=O)Nc2ccc(Cl)cn2)n1	0.73	-1%	-2.1	-6.0	5.7	-6	-0.6
Cc1cc(=O)oc2cc(OCC(=O)N3CCN(c4ccccc4)CC3)ccc12	0.71	-8%	-0.7	4.5	-28	-8	-1.7
